Arbovirus anti – blocks arbovirus infection. arbovirus infection cell-based antiviral screen. inhibition, % at 10 µM. hit rate 0.37% among 200,000;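 active = inhibition from about 30%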;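 note: bluetongue infection of BSR cells; cell survival read as ATP light after 72 h; 0% = infected wells without compound and 100% = uninfected wells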
Mtb betalactam – beta-lactam sensitization of Mtb H37Rv. M. tuberculosis H37Rv growth with meropenem, percent inhibition; hits of this screen are not shown here. inhibition, % at 25 µM. hit rate 0.27% among 330,000. AID 434955;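 active = about 74% or more and at least 40 points above the plate without the antibiotic, then above 30% in a dose series; inconclusive = first-round hits that could not be retested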;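 note: growth measured after seven days incubation then overnight dye step; 0% = bacteria only wells and 100% = bacteria with antibiotic; twin plates without the antibiotic show which effects depend on it; some results filed as inactive read as strong as hits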
RecA intein inh – blocks M. tuberculosis RecA intein splicing; inhibition, %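 (about 9 µM by stock and volumes)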; cell-free RecA intein splicing, fluorescence; AID 2221; P9WHJ3; hit rate 0.75% among 290,000; in the data active = inhibition above about 30%; inconclusive = no clear call, values can overlap the other calls;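 note: 0% = vehicle wells and 100% = reference inhibitor control wells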
Target sequence (P9WHJ3 whole entry, looked up): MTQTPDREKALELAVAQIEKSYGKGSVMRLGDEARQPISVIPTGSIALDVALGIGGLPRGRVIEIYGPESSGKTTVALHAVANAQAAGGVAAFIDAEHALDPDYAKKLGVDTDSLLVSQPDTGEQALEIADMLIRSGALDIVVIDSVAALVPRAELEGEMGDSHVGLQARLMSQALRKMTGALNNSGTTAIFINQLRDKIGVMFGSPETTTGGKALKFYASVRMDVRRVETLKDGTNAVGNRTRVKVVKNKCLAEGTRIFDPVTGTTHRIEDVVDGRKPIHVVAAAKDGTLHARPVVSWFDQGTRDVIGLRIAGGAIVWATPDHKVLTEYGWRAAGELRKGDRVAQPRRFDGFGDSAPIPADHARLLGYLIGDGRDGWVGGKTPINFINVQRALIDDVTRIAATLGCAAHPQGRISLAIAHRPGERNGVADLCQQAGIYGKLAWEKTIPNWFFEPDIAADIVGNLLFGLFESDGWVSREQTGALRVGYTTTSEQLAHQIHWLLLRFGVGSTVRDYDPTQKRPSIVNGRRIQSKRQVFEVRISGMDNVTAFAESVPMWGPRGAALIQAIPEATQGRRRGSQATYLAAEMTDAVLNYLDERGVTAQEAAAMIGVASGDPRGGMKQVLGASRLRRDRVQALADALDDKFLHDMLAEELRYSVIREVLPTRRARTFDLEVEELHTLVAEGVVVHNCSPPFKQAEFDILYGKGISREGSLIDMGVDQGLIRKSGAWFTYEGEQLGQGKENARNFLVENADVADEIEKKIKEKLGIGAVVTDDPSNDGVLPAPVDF
Mtb H37Rv – M. tuberculosis H37Rv growth inhibitors, H37Rv strain (AID 1626). M. tuberculosis H37Rv growth inhibition; higher % means a stronger effect. inhibition, % at 10 µM, or IC50 in µM where a hit was titrated. hit rate 0.95% among 220,000;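 active = confirmed in a dose series; inconclusive = inhibition above 80% but not taken into the dose series; inactive = below 80% or under 30% at every dose of the series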;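 note: bacteria incubated seven days before Alamar blue readout; 0% = bacteria only wells and 100% = bacteria with antibiotic wells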
YopH inh – YopH (Yersinia) phosphatase inhibition; fluorescence Ex485/Em525; inhibition, %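 (about 10 µM by stock and volumes)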; hit rate 0.16% among 140,000;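 active = inhibition of 50% or more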;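 note: controls were vehicle for no effect and minimum signal wells for full effect; inactives centre near -20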
Arbovirus anti repeat – further read-out of Arbovirus anti, marked with its call; inhibition, %; measured here: 10K subset replicate screen; many hits read low in the repeat;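 first of two repeat runs on a subset; 0% = infected and 100% = uninfected wells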
The depositor's hits bear a star; ? = inconclusive; nt = not tested or not shown; & = joins results of further samples.

SMILES | Arbovirus anti | Mtb betalactam | RecA intein inh | Mtb H37Rv | YopH inh | others
Nc1nonc1-c1nc2ccccc2n1CC(=O)N1CCCCC1 | -2 | -3 | -0.8 | 8% | -38
CN(C)c1ccc(CNc2ncnc3sccc23)cc1 | nt | -3 | -0.2 | nt | nt
COc1ccccc1OCc1nnc(SCC(N)=O)n1-c1ccccc1 | nt | 2 | -1.7 | nt | nt
Cc1ccc(CN(CC(=O)NCCc2ccccc2)C(=O)c2csnn2)cc1 | nt | -11 | 1.5 | nt | nt
COc1cc(CNCc2ccco2)cc(OC)c1O | nt | 2 | -7.5 | nt | nt
Cc1ccccc1CN1CCN(S(=O)(=O)c2ccc(F)cc2)CC1 | -5 | 3 | 4.6 | -4% | -39
Cc1ccc(C(=O)NN(C)c2nc3ccccc3nc2C(F)(F)F)cc1 | -25 | 3 | -2.5 | 8% | -3
CN1/C(=C\C(=S)NC(=O)c2ccccc2Cl)C(C)(C)c2ccccc21 | 18 | 2 | -3.4 | 3% | -25
CC(C)CC(=O)N1CCN(S(=O)(=O)c2ccc3ccccc3c2)CC1 | 6 | 3 | 1.6 | -1% | -28
COCCOC(=O)C1=C(C)NC2=C(C(=O)CC(C)(C)C2)C1c1ccc(N(C)C)cc1 (centres undefined) | 6 | 2 | nt | -2% | -52 | Arbovirus anti repeat=1
COCCN(C(=O)COC(=O)Cc1ccccc1)c1c(N)n(Cc2ccccc2)c(=O)[nH]c1=O | nt | 2 | 0.1 | nt | nt
O=C(/C=C/c1ccco1)Nc1ccc2c(c1)OCO2 | -27 | -9 | 1.9 | 2% | nt
O=C(CCSc1nc2ccccc2o1)N1CCOCC1 | 0 | 63 | 1.6 | 8% | 0
NC1=NC[C@H](Cc2ccccc2)N1CCc1cccc(F)c1 | nt | -1 | -2.1 | 4% | nt
COc1cc(CN(C(=S)NCC(=O)NC2CCCC2)C2CCCC2)cc(OC)c1OC | -2 | 3 | 0.5 | 1% | -13
COc1cc(CC2C(=O)Nc3ccccc32)cc(C)c1O (centres undefined) | nt | -2 | 0.0 | nt | nt
O=C(c1ccccc1)c1ccc2nc(-c3ccc(NC(=O)c4ccccc4Br)cc3)[nH]c2c1 | -25 | 98 | 4.4 | nt | -31
COCC(=O)Nc1ccc(C(C)C)cc1 | 1 | 93 | -0.1 | -15% | 4
C1=C(c2ccccc2)CCNC1 | nt | -7 | -1.0 | -12% | nt
COc1ccc(CNCc2ccc3c(c2)OCO3)cc1Br | nt | -1 | -0.5 | nt | nt
O=C(Nc1ccnn1C1CCN(C2CCC2)CC1)c1cccc(F)c1 | nt | -5 | -2.0 | nt | nt
O=S(=O)(c1ccc(Cl)cc1)N(Cc1ccccn1)Cc1ccccn1 | nt | -1 | -3.2 | nt | nt
O=C1C=C(Nc2cccc3cccnc23)c2ccccc2C1=O | nt | 14 | 90* | nt | nt
CCOC(=O)CNc1nc(Cl)nc(Nc2ccc(OC)cc2OC)n1 | nt | -4 | -5.3 | nt | nt
COC(=O)C(NC(C)=O)(Nc1cccc(C)n1)C(F)(F)F (centres undefined) | nt | -1 | -3.0 | -7% | nt

Other compounds follow:
SMILES | Arbovirus anti | Mtb betalactam | RecA intein inh | Mtb H37Rv | YopH inh | others
Cc1ccc[n+](CC(=O)c2ccc(Cl)cc2)c1 | nt | -5 | -3.1 | nt | nt
CCCCCC1CCC(c2ccc(C(N)=O)cc2)CC1 (centres undefined) | 4 | -5 | 0.2 | 3% | -14
CC1Cc2ccccc2N1C(=O)c1cnc2n(c1=O)CCS2 (centres undefined) | 2 | -1 | 2.5 | 4% | nt | Arbovirus anti repeat=-1
Cc1ccc(CNC(=O)CCn2c(=O)oc3ccccc32)cc1 | nt | 0 | 0.4 | 3% | nt
O=C(Nc1cccc(Cl)c1)N(CCN1CCOCC1)Cc1cccc(Cl)c1 | -9 | -2 | 5.3 | -1% | -34
O=C(Nc1ccc([N+](=O)[O-])cn1)c1ccc2c(c1)OCO2 | 1 | 1 | -0.4 | 2% | nt
O=C1CC(c2ccccc2)CC(O)=C1C=NC1CCCCC1 (centres undefined) | -8 | 0 | 0.8 | 0% | -5
COCCCN1C(=O)C(=O)/C(=C(/O)c2ccc(S(=O)(=O)N3CCCCC3)cc2)C1c1ccc(O)cc1 (centres undefined) | nt | -3 | 1.0 | nt | nt
Cc1cccc(CN2CCCC(C(=O)N3CCCCC3)C2)c1 (centres undefined) | nt | -5 | -0.7 | nt | nt
Cc1ccc(C(=O)NCCNC(=O)COc2ccc(C)c(C)c2)cn1 | nt | -8 | 0.8 | nt | nt
CCCn1c(N)c(N(CCOC)C(=O)C(C)Oc2ccc(F)cc2)c(=O)[nH]c1=O (centres undefined) | nt | 1 | -0.4 | nt | nt
COc1ccc(OC)c(N(CC(=O)Nc2cccnc2)S(=O)(=O)c2ccc(C)cc2)c1 | 0 | 5 | 0.1 | -6% | -16
COc1ccc(NC(=O)c2cc(-c3cccnc3)nc3c(C)c(C)ccc23)c(OC)c1 | -6 | 61 | -2.6 | 9% | -8
Cc1sc2nc(C3CCCCC3)nc(SCC(=O)N3CC(=O)Nc4ccccc43)c2c1C | -7 | 1 | 0.8 | 5% | -46
C/C(=N\NC(=O)CNc1cccc(C(F)(F)F)c1)c1cccc(Br)c1 | 6 | 8 | 0.6 | 1% | -13
COCC(=O)NC(C)c1nc2ccccc2[nH]1 (centres undefined) | 4 | -8 | 2.1 | -10% | -51 | Arbovirus anti repeat=1
NC(=O)c1ccc(C(F)(F)F)n(Cc2c(Cl)cccc2Cl)c1=O | 2 | -2 | nt | 17% | -24
O=C(COC(=O)c1cccnc1Cl)Nc1nc(-c2ccccc2)cs1 | 0 | -3 | 3.0 | 1% | -12
COc1ccc(/C=N/NC(=O)COc2ccc3ccccc3c2)c(C(=O)O)c1OC | 0 | -3 | 1.4 | 10% | -17
CCOc1ccc(C(=O)N/N=C/c2cc(Cl)ccc2[N+](=O)[O-])cc1 | -16 | -6 | -2.7 | 3% | -35
COC(=O)CN1C(=O)[C@H]2[C@@H](c3ccc(C)o3)N3C(=O)CN(Cc4ccccn4)C(=O)[C@@]3(Cc3ccccc3)[C@H]2C1=O | nt | 4 | 4.1 | nt | nt
Cc1ccc2cc(C(c3nnnn3C3CCCC3)N(Cc3ccco3)Cc3cccs3)c(=O)[nH]c2c1 (centres undefined) | -10 | -7 | 3.6 | 3% | -21
CC(/C=N/NC(=O)c1cc(C(C)(C)C)[nH]n1)=C\c1ccccc1 | -14 | 98 | 4.5 | 3% | -41
Cc1ccccc1N/C(=N/S(=O)(=O)c1ccccc1)c1ccc(F)cc1 | nt | -5 | -0.2 | -2% | nt
CNS(=O)(=O)Cc1ccc2[nH]cc(CCN(C)C)c2c1 | nt | 3&4 | -2.3&-3.5 | 0% | nt

Quoted at random: four compounds from above, in no set order.
SMILES | Arbovirus anti | Mtb betalactam | RecA intein inh | Mtb H37Rv | YopH inh | others
COc1ccc(CNCc2ccc3c(c2)OCO3)cc1Br | nt | -1 | -0.5 | nt | nt
O=C1CC(c2ccccc2)CC(O)=C1C=NC1CCCCC1 (centres undefined) | -8 | 0 | 0.8 | 0% | -5
COC(=O)C(NC(C)=O)(Nc1cccc(C)n1)C(F)(F)F (centres undefined) | nt | -1 | -3.0 | -7% | nt
O=C(CCSc1nc2ccccc2o1)N1CCOCC1 | 0 | 63 | 1.6 | 8% | 0

Next part
SMILES | Arbovirus anti | Mtb betalactam | RecA intein inh | Mtb H37Rv | YopH inh | others
COCC1CCN(Cc2nc(COc3ccccc3)no2)C1 (centres undefined) | 5 | -11 | -1.9 | -2% | nt
CCn1c(SCC(=O)NCC2CCCO2)nnc1-c1ccccc1 (centres undefined) | 13 | 1 | -0.2 | -1% | -12
COc1ccc(CSc2nnnn2-c2ccc(C(N)=O)cc2)cc1[N+](=O)[O-] | nt | -4 | 3.6 | nt | nt
COc1ccc(CCNC(=O)C(C)OC(=O)c2ccco2)cc1OC (centres undefined) | -2 | 5 | 1.8 | -10% | -12
COc1ccc(C(=O)NCc2nnc(SCC(=O)N3CCCc4ccccc43)o2)cc1OC | 2 | 3 | nt | 0% | nt
Cc1cc(=O)oc(C)c1C(=O)Nc1cccc2ccccc12 | 3 | -1 | -1.1 | 8% | 15
CN(C)c1ccc(N=Cc2cccn2C)cc1 | nt | -5 | 2.1 | nt | nt
COc1ccc(/C=N/NC(=O)c2cccc([N+](=O)[O-])c2)cc1O | -4 | 0 | -2.1 | -3% | nt
Cc1ccccc1C(=O)NCC(=O)O | 2 | -4 | 1.4 | 4% | nt
CC(=O)c1ccc(NC(=O)Nc2ccccc2)cc1 | 8 | 8 | -0.2 | 5% | 26
CCc1ccc(S(=O)(=O)NCc2cn3ccsc3n2)s1 | 1 | 6 | 5.5 | -6% | -19
Cc1cc(=O)[nH]c(N/N=C/c2cc(C)n(CC(F)(F)F)c2C)n1 | nt | -5 | -3.5 | -4% | nt
Cc1ccc(C)c(S(=O)(=O)N2CCNCC2)c1 | -2 | 2 | -0.9 | 1% | nt
COc1ccc(C(=O)NCC(=O)c2ccccc2)cc1 | nt | 9 | -0.9 | nt | nt
CN(C)C(=O)c1ccc(NC(=O)CC2SC(N3CCCC3)=NC2=O)cc1 (centres undefined) | nt | -3 | 0.3 | nt | nt
CC(NC(=O)c1ccccc1F)c1nnc(SCc2nc3ccccc3c(=O)[nH]2)n1C (centres undefined) | 1 | -7 | 4.7 | -3% | nt
COc1cccc(CN2CCC(Oc3ccc(C(=O)N4CCCCC4)cc3)CC2)c1O | nt | -6 | -2.5 | nt | nt
CN(C)c1ccc(C2Nc3cccc4cccc(c34)N2)cc1 | nt | 8 | 2.5 | nt | nt
COc1cc2ncnc(NCc3ccc(Cl)cc3)c2cc1OC | -9 | 0 | -2.1 | 9% | nt
Cn1c(CSCc2ccccc2Cl)n[nH]c1=S | -3 | -1 | 1.4 | 2% | nt
O=C1CC(C(F)(F)C(F)(F)C(F)(F)C(F)F)=Nc2ccccc2N1 | 1 | 8 | 1.9 | -2% | -44
NS(=O)(=O)c1ccc(CNS(=O)(=O)c2cc(Cl)ccc2Cl)cc1 | nt | -8 | -15 | 2% | nt
COc1ccc(S(=O)(=O)N2CCN(CC(=O)Nc3ccccc3OC)CC2)cc1 | nt | 2 | 0.7 | nt | nt
O=C(N=Nc1c(O)[nH]c2ccc(Br)cc12)c1cc(-c2cccs2)nc2ccccc12 | -13 | nt | 3.7 | 8% | nt
CCOC(=O)c1ccccc1-c1csc(NS(=O)(=O)c2ccc(Cl)cc2)n1 | 16 | 2 | 0.6 | -16% | -13

(next part)
SMILES | Arbovirus anti | Mtb betalactam | RecA intein inh | Mtb H37Rv | YopH inh | others
NC(=O)CCC(NC(=O)c1ccc(Cl)cc1)C(=O)O (centres undefined) | 1 | 7 | -2.0 | 2% | nt
CCC(=O)Nc1cccc(C(=O)c2ccccc2)c1 | -2 | 8 | 0.2 | 26% | -19
Cc1n[nH]c(=O)n1-c1cccc(C(F)(F)F)c1 | 7 | ? | -1.8 | -21% | -33
CCCN(CCC)CCNC(=O)C1CCN(Cc2nc(-c3ccc(Cl)cc3)oc2C)CC1 | -34 | ? | -1.8 | -5% | -19
CNC(=S)NC1CC2CCCC(C1)N2Cc1ccc(C)cc1 (centres undefined) | 1 | -1 | 2.7 | -2% | nt
CN(Cc1ccnc2ccccc12)C(=O)C1CCC(=O)N(Cc2ccccc2F)C1 (centres undefined) | nt | -16 | -5.5 | nt | nt
Cn1c(=O)c2c(nc(Cc3ccccc3)n2C)n(C)c1=O | nt | -1 | -8.9 | -10% | nt
Cc1ccccc1NC(=O)c1cc[n+]([O-])cc1 | nt | -3 | 2.1 | nt | nt
CC12CCC(C(=O)NNc3ccccc3)(C(=O)C1=O)C2(C)C (centres undefined) | nt | 89 | -1.3 | ? | nt
Cc1ccc(Nc2cc(C)nc3ncnn23)c(C)c1 | nt | -2 | -0.6 | nt | nt
CCc1nc(SCc2ccc(OCC(C)C)cc2)n[nH]1 | nt | -2 | -1.5 | nt | nt
COc1ccccc1NC(=O)Nc1cccc(C)n1 | nt | 1 | -8.5 | nt | nt
CSc1nnnn1-c1ccc(C(=O)O)cc1 | -1 | -9 | -1.8 | -3% | -32
COc1cc(OC)cc(C(=O)N2CCCc3ccccc32)c1 | 6 | 2 | 5.4 | -2% | -47
CCN(C(=O)c1ccc(NC(C)=O)cc1)c1ccccc1 | 3 | -4 | 0.6 | 2% | -29
Cc1ccc(S(=O)(=O)NCc2ccccc2)cc1C(=O)N1CCCC(C(F)(F)F)C1 (centres undefined) | nt | 0 | -1.0 | nt | nt
COc1ccc(OCC(=O)Nc2ccc3nc(C)sc3c2)cc1 | -2 | 91 | -4.0 | 11µM* | nt
Cc1cc(C)cc(SCc2noc(C(=O)NCCN(C)C)c2C(=O)NCCN(C)C)c1 | nt | -9 | 0.8 | -10% | nt
S=C(NCc1ccncc1)Nc1ccc(Cl)c(Cl)c1 | -30 | 39 | -0.5 | 4% | -14

Assay outcomes as filed in PubChem BioAssay.

Some of the compounds tested; the hit share may differ from the screen's.
